Compound activity (PubChem)
NPYLR7 agonist: mosquito NPYLR7 agonism; HEK293T NPYLR7/Galpha15, GCaMP6s calcium fluorescence; activation, % at 10 µM; hit rate 0.15% among 270,000; in the data active means activation above about 40%;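 further: 0% = vehicle and 100% = reference agonist at the receptor; some compounds past the cut are filed as inactive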
NPYLR7 agonist max-min: further read-out of NPYLR7 agonist, marked with its call; activation, %; measured here: Max-Min RFU normalised activation; some inactives read as strong as hits;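 span of the calcium signal over five minutes; 0% = vehicle and 100% = native peptide agonist; compound fluorescence can raise it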
Numbers without * were called inactive; & = joins results of further samples. An excerpt; rates above refer to the full screens.

SMILES | NPYLR7 agonist | NPYLR7 agonist max-min
CCN(CCn1cccn1)Cc1nc(-c2cccs2)no1 | 4 | 1
Cc1ccc(C)c(OCC(O)CN2C(=O)NC(C)(c3ccc(F)c(F)c3)C2=O)c1 (stereo unspecified) | 1 | 9
C=CCNC(=O)C(C1CCCC1)N1CCN(C(=O)c2ccc(C(F)(F)F)cc2)CC1 (stereo unspecified) | -7 | 0
Cc1nc2ccccc2n1Cc1ccccc1 | -3 | -9
CC(=O)CSc1nnc2n1CCN2c1ccc(F)cc1 | 7 | 8
C=CCN(Cc1nccn1Cc1ccccc1Cl)C(=O)C1CC1 | 8 | 14
O=C(CC(c1ccc(Cl)c(C(F)(F)F)c1)c1c[nH]c2ccccc12)NCc1ccc2c(c1)OCO2 (stereo unspecified) | 17 | 25
Cc1cc(C(=O)NC(C)C(O)c2c(F)cccc2Cl)no1 (stereo unspecified) | 2 | 3
Cc1nn(C)c(C)c1C(=O)N1CCN(S(=O)(=O)c2ccc(Cl)c(Cl)c2)CC1 | 1 | 9
CC[C@H](C)[C@H](N)C(=O)N1CCC(Cn2cc(CN(C)C)nn2)CC1 | 14 | 11
OC[C@H]1O[C@@H](n2cnc3c(NC4CCCCC4)ncnc32)[C@H](O)[C@@H]1O | -5 | -19
COc1ccc(C(=O)N2CCN(C(=O)c3cc(-c4ccc(Cl)cc4)n(-c4ccccc4OC)c3C)CC2)cc1 | -5 | 6
CCC(=O)Nc1cccc(C2SCC(=O)N2c2cc(F)ccc2F)c1 (stereo unspecified) | 16 | 26
Cc1noc(C)c1C(=O)NCC1CCCCN1Cc1ccccc1 (stereo unspecified) | -20 | -24
Cc1cccc(-n2cc(CN3CCN4CCN(C)CC4C3)cn2)c1 (stereo unspecified) | -1 | -2
COc1ccc(Cc2nnc(NC3CCCC3)[nH]c2=O)cc1 | 12 | 7
COC(=O)c1cc2c(=O)n3cccc(C)c3nc2n(CCCn2ccnc2)c1=N | 2 | -1
c1nc(N2CCOCC2)sc1CN1CCn2cncc2C1 | -2 | -3
COc1ccc(-n2c(CCC(=O)NCCCN3CCCC3=O)ccc2-c2ccc(Cl)cc2)cc1 | -3 | -5
C=CCOc1cc(Br)c(C(=O)O)cc1OCC | 15 | 5
CCn1c(C2CCN(C(=O)CCSc3nnc(C)s3)CC2)n[nH]c1=O | -5 | -9
COc1ccc(C2CC(c3cccc(OC)c3)=NN2C(=O)CN(C)C2CCN(C)CC2)cc1 (stereo unspecified) | -5 | -4
COc1ccc(-c2ccc(SCc3ccncc3)nn2)cc1OC | 0 | -3
Cc1nn(C)cc1S(=O)(=O)NCCC1=CCCCC1 | 2 | 2
O=C(Cc1ccc(F)cc1)NCc1nnnn1C1CCCCC1 | 4 | 4
More results
SMILES | NPYLR7 agonist | NPYLR7 agonist max-min
COCCNC(=O)CSc1nnc(N2CCN(C(=O)C3CC3)CC2)s1 | -7 | -9
O=C(CN1CCCCC1c1ccccn1)NCc1ccccc1F (stereo unspecified) | -1 | -2
CCC(C)C(NC(=O)Nc1ccc(C)c(Cl)c1)C(=O)Nc1nnc(-c2cccc(OC)c2)s1 (stereo unspecified) | -6 | 2
CCCCNC(=O)C1(C)CCN1Cc1ccc(C(=O)OCC)cc1 (stereo unspecified) | 2 | -1
CC(C)(C)C1COC(CC2=NC(C(C)(C)C)CO2)=N1 (stereo unspecified) | -4 | -15
CNC(=O)CN1CCN(c2cc(C)nc(C(C)C)n2)CC1 | 2 | 2
CC1C(=O)N(c2ccc(Oc3ccccc3)cc2)CCN1C(=O)C1CCCC1 (stereo unspecified) | -3 | 1
COCCN1COc2ccc3c(=O)c(Oc4cccc(OC)c4)c(C)oc3c2C1 | -8 | -13
CN(CC(=O)NCc1ccc(Cl)cc1)Cc1nccn1C(F)F | 3 | 16
N#Cc1ccccc1COC1C[C@](OCc2ccccc2F)(C(=O)NCCN2CCCC2)C[C@@H](O)[C@H]1O (stereo partly specified) | -6 | 2
Cc1ccc(Cl)c(OC2CC3CCC(C2)N3C(=O)c2ccc(CSc3ccccc3Cl)cc2)c1 (stereo unspecified) | 7 | -3
CCCCCC(C)NC(=O)Cn1cc(Br)ccc1=O (stereo unspecified) | -1 | 0
COc1ccc(OCCCn2c(C3CC(=O)N(Cc4ccccc4)C3)nc3ccccc32)cc1 (stereo unspecified) | 2 | 0
CCC(c1cccnc1)N(C)Cc1ccc(NC(C)=O)cc1 (stereo unspecified) | -2 | 3
Cc1cccc(CO[C@]2(C(=O)NCCN3CCOCC3)CC(OCc3cccc(C(F)(F)F)c3)[C@H](O)[C@H](O)C2)c1 (stereo partly specified) | 7 | 17
COc1cc(C2c3c(n[nH]c3-c3cccc([N+](=O)[O-])c3)OC(=N)C2C#N)cc(OC)c1OC (stereo unspecified) | -6 | -8
N#Cc1ccc(NC(=O)CN2CCN(S(=O)(=O)c3ccc(Br)cc3)CC2)cc1 | -7 | -9
CCOC(=O)c1cc(-c2cccc(NC(=O)COC)c2)n(-c2ccccn2)n1 | 21 | 15
COC(=O)CCCNC(=O)C1CCC(=O)N(CC2CCCCC2)C1 (stereo unspecified) | 3 | 2
Cc1c(C(=O)NCC2CCCCC2)sc2ncnc(NCCc3ccccn3)c12 | 19 | 3
O=C(Nc1oc2ccccc2c(=O)c1-c1ccc2c(c1)OCO2)C1CCCCC1 | -6 | -7
CC(=O)N1CCN(CCn2c(C)c3c(=O)n(-c4nc5ccccc5s4)[nH]c3cc2=O)CC1 | -13 | -21
COc1ccc(-c2nn(CC(N)=O)c(=O)c3nc(C)sc23)cc1 | 3 | -1
Nc1cccc(-c2ccc3nnc(-c4cccc(Cl)c4)n3c2)c1 | 2 | -6
COc1ccc(-c2nc(CN3CCCC(c4nc5ccccc5o4)C3)c(C)o2)c(F)c1 (stereo unspecified) | 20 | 10
More records follow.
SMILES | NPYLR7 agonist | NPYLR7 agonist max-min
Cc1ccc(NC(=O)CN2C(=O)CSC2c2ccc(C(F)(F)F)cc2)cc1 (stereo unspecified) | 6 | -2
CSc1nc2c(c(=O)n(C)c(=O)n2C)n1Cc1ccccc1 | -14 | -14
COc1cc(C)c(C(C)NC(=O)NCCCn2cncn2)cc1OC (stereo unspecified) | 11 | 7
O=S(=O)(Nc1cc(-c2nnc3n2CCCCC3)ccc1F)c1cccc(C(F)(F)F)c1 | -8 | -10
O=C(/C=C/c1cccs1)N(CCCn1ccnc1)c1nc2c(F)cc(F)cc2s1 | -12 | -14
COc1ccc(C(=O)N(CC(=O)N(CCc2c[nH]c3ccccc23)Cc2ccc(C(F)(F)F)cc2)C2CC2)c(OC)c1 | -12 | -16
CSc1ncc(CNCc2sccc2C)c(N2CCN(c3ccccc3F)CC2)n1 | 2 | 15
Cc1cc(C(F)(F)F)c2c(n1)sc1c(=O)[nH]c(=O)[nH]c12 | 11 | 9
CC(C(=O)Nc1cc(C(N)=O)ccc1CN(C)C)n1cccn1 (stereo unspecified) | -1 | -4
CCOC(=O)c1nn(-c2ccc(C(F)(F)F)cc2)c(=O)c2c(NC(=O)C3CCCC3)scc12 | 13 | 12
CC(c1nccs1)N(C)C(=O)c1cc(-c2cccn2C)n[nH]1 (stereo unspecified) | 2 | 1
Cc1ccc(CNC(=O)CC2CSc3nc4c(c(=O)n32)CCCC4)cc1 (stereo unspecified) | -5 | -8
Cc1nn2c(N3CCCCC3)c3c(nc2c1-c1ccccc1)CCC3 | 5 | 3
O=C(CCc1nc2ccccc2s1)NCCc1nc2ccccc2[nH]1 | -1 | 35
Nc1ccc(CC(N)c2csc(Nc3cc(Oc4ccccc4)ncn3)n2)cc1 (stereo unspecified) | -4 | -9
CC1Cc2nc(SCC(=O)Nc3ccc(OC(F)(F)F)cc3)n(C)c(=O)c2S1 (stereo unspecified) | -1 | 0
CC1CN(Cc2ccn(C)c(=O)c2)CCN1Cc1ccn(C)c(=O)c1 (stereo unspecified) | 5 | 3
COc1ccc(CN(Cc2cccc(C)c2)CC(O)Cc2ccccc2)cc1 (stereo unspecified) | 33 | 37
O=[N+]([O-])c1cc(N=Cc2ccccn2)ccc1N=Cc1ccccn1 | 7 | 6
Cc1csc(C(C)N(C)C(=O)c2cnn(-c3ncc(C)c(-c4ccc(F)cc4)n3)c2C(C)C)n1 (stereo unspecified) | 19 | 6
COc1ccc(O)c(C=NN=Cc2cc(OC)ccc2O)c1 | -8 | -16
CC(C)Oc1ccc(CN2CCN(Cc3cccc(F)c3)CC2)cc1CO | -5 | -9
CCOC(=O)C1CCN(C(c2ccc(SC)cc2)c2c(O)cc(C)n(CCOC)c2=O)CC1 (stereo unspecified) | 9 | 0
CC(=O)NC1=NN(C(C)=O)C2(S1)C(=O)N(CCOc1cccc(C)c1)c1ccc(C)cc12 (stereo unspecified) | 2 | 0
CCOC(=O)c1cnn(-c2cc(C)nc3c(-c4ccccc4)c(C)nn23)c1N | 2 | -1

Record cards, from the list above. Screens in order: NPYLR7 agonist | NPYLR7 agonist max-min
CN(CC(=O)NCc1ccc(Cl)cc1)Cc1nccn1C(F)F in the list: 3 | 16
Cc1ccc(Cl)c(OC2CC3CCC(C2)N3C(=O)c2ccc(CSc3ccccc3Cl)cc2)c1 (stereo unspecified) in the list: 7 | -3
CCN(CCn1cccn1)Cc1nc(-c2cccs2)no1 in the list: 4 | 1
N#Cc1ccc(NC(=O)CN2CCN(S(=O)(=O)c3ccc(Br)cc3)CC2)cc1 in the list: -7 | -9
C=CCNC(=O)C(C1CCCC1)N1CCN(C(=O)c2ccc(C(F)(F)F)cc2)CC1 (stereo unspecified) in the list: -7 | 0

Back to the main list, starting three compounds before the break.
SMILES | NPYLR7 agonist | NPYLR7 agonist max-min
CCOC(=O)C1CCN(C(c2ccc(SC)cc2)c2c(O)cc(C)n(CCOC)c2=O)CC1 (stereo unspecified) | 9 | 0
CC(=O)NC1=NN(C(C)=O)C2(S1)C(=O)N(CCOc1cccc(C)c1)c1ccc(C)cc12 (stereo unspecified) | 2 | 0
CCOC(=O)c1cnn(-c2cc(C)nc3c(-c4ccccc4)c(C)nn23)c1N | 2 | -1
CCCc1cc(NCC2CCCO2)n2nc(C)c(-c3ccccc3)c2n1 (stereo unspecified) | 2 | 7
O=C(O)CNc1cccc(C(=O)NCCc2ccncc2)c1 | 3 | -1
CNCc1nc2sc(C)c(C)c2c(=O)[nH]1 | 27 | 31
NC(=O)c1ccc(Cn2nc(-c3cccs3)oc2=O)cc1 | 10 | 7
CCCC(=O)N1CCN(c2ncnc3c2nnn3-c2ccc(OCC)cc2)CC1 | -10 | -20
Cc1cc(S(=O)(=O)NCc2ccco2)c(C)cc1Cl | 4 | 2
O=C(CCN(Cc1ccco1)c1nc(-c2ccc(F)cc2)nc2ccccc12)NCCN1CCOCC1 | 14 | 12
COCCN(Cc1cccc(OS(=O)(=O)c2ccc(OC)cc2)c1)C(=O)NC(C)(C)C | 14 | 17
CCc1nc2ccc(C(=O)NCc3cccs3)cn2c1N(CC)CC(=O)N(C)C | 11 | 20
COc1ccc(-c2nc3cc(C)ccn3c2NC(=O)C2CCC2)cc1 | -8 | -5
CSCC(=O)NC1CC(=O)N(CCc2cccc(Cl)c2)C1 (stereo unspecified) | 6 | 3
CC1=C(C(=O)OCCOc2ccccc2)C(c2cccc([N+](=O)[O-])c2)NC(=O)N1C (stereo unspecified) | -2 | -7
Cc1nc(-c2cccnc2)sc1-c1ccc(SCC(=O)Nc2ccc(Cl)cc2)nn1 | 3 | 2
CCn1c(-c2ccncc2)nn(CN(C)Cc2ccccc2)c1=S | 9 | 4
O=C(N=Nc1c(O)n(CN2CCCC2)c2ccccc12)c1ccccc1Cl | 21 | 14
COC(=O)c1c(-c2cc(OC)c(OC)c(OC)c2)c2ccc(OCc3ccccn3)cc2c(=O)n1-c1ccc(N)cc1 | 2 | 3
CCOC(=O)C1(Cc2ccccc2)CCCN(C(=O)c2ccc3cc[nH]c3c2)C1 (stereo unspecified) | 6&-7 | 0&-7
CC(C)CCCC(C)NC(C)C (stereo unspecified) | 5 | 8
Cc1ccc2cc(CCNS(C)(=O)=O)c(=O)[nH]c2c1C | 1 | -3
Cc1cc(C(=O)COC(=O)C=Cc2cccc(F)c2)c(C)n1CC1COc2ccccc2O1 (stereo unspecified) | -3 | -12
CCc1ccc(S(=O)(=O)N2CCN(c3ccc(C)nn3)CC2)cc1 | -15 | -23
CC1(C)C(=O)NCCN1C(=O)Cc1csc(-c2cccs2)n1 | 7 | 1
Cc1cccc(S(=O)(=O)NC(=O)C2(C)CCN2C(=O)c2c(C)noc2C)c1 (stereo unspecified) | 1 | 0

Sorted by number of heavy atoms (rising): part of the list above.
SMILES | NPYLR7 agonist | NPYLR7 agonist max-min
O=C(CN1CCCCC1c1ccccn1)NCc1ccccc1F (stereo unspecified) | -1 | -2
Cc1csc(C(C)N(C)C(=O)c2cnn(-c3ncc(C)c(-c4ccc(F)cc4)n3)c2C(C)C)n1 (stereo unspecified) | 19 | 6
N#Cc1ccccc1COC1C[C@](OCc2ccccc2F)(C(=O)NCCN2CCCC2)C[C@@H](O)[C@H]1O (stereo partly specified) | -6 | 2

Part of the list above, reformatted:
CC1CN(Cc2ccn(C)c(=O)c2)CCN1Cc1ccn(C)c(=O)c1 (stereo unspecified)
  NPYLR7 agonist = 5; NPYLR7 agonist max-min = 3
COc1ccc(CN(Cc2cccc(C)c2)CC(O)Cc2ccccc2)cc1 (stereo unspecified)
  NPYLR7 agonist = 33; NPYLR7 agonist max-min = 37
